Compound activity (PubChem)
gsp antagonist = gsp mutant antagonism; gsp-mutant cells, cAMP HTRF, 30 min; control for the full effect not named in the record; Potency, µM (highest dose often 76.9 µM), without a hit: at the highest dose activity change, negative = inhibition, usual class: inhibitors; hit rate 0.4% among 340,000; AID 624288; active = falling curve of any shape with a large fitted effect; inconclusive = falling curve, mostly with a smaller effect; inactive = flat or rising curve; cell line not stated here;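 note: intracellular cAMP measured with PDE inhibitor Ro 20-1724 present during compound exposure; potency is the fitted concentration of half-maximal effect; % is set by controls: 0 for no effect and ±100 for the full control effect; nearly all actives have a fitted effect of over 65% in size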
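Measurement of cellular cAMP by homogeneous time-resolved fluorescence following a 30 min compound exposure at 37C. The PDE inhibitor […] was present throughout; the assay buffer was DPBS with 0.05% BSA and 0.005% Tween 20.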
ClpP mod = qHTS Assay for Activators of ClpP | ATP-dependent Clp protease proteolytic subunit (Bacillus subtilis (strain 168)), P80244 | purified B. subtilis ClpP, FRET peptide cleavage, 20 min | Potency, µM (titrated, usually from 57.5 µM), for the others: top-dose activity change, negative = active | hit rate 1.9% among 340,000; active = well fitted falling curve with a large enough effect; inconclusive = small, poorly fitted or top-dose-only effect; inactive = no such curve, though single readings can be large or run the other way; note: potency is the fitted concentration of half-maximal effect; the source files actives as falling curves though it sought activators and does not explain the sign; nearly all actives have a fitted effect of over 65% in size; many hits overshoot -100%
Target sequence (P80244 whole entry, looked up): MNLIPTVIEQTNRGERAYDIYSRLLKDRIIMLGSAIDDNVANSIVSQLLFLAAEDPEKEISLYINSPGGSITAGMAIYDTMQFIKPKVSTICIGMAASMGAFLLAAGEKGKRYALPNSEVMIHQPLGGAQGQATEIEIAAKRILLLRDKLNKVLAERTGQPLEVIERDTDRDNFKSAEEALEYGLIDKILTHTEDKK
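ClpP 10 microg/mL final, pH 8 Tris/KCl buffer with BSA, glycerol, Tween-20; compound pinned in; FRET-FV substrate; RT 20 min; Ex320/Em430; ΔFRET vs ADEP 5.8 microM, DMSO, no enzyme.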
Sfp inh = blocks B. subtilis Sfp PPTase activity; Q9F4F7; hit rate 3.5% among 310,000; Biochemical Sfp PPTase activity, qHTS; Potency, µM, for inactives: max response, negative = inhibition, actives largely listed as inhibitors; active = well fitted inhibition curve with a large enough effect; inconclusive = small, poorly fitted or top-dose-only effect, or another doubt; inactive = no such curve, though single readings can be large or run the other way;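 note: the enzyme is Sfp with the accession as filed and its product quenches rhodamine fluorescence; potency is the fitted concentration of half-maximal effect; 0% = enzyme reaction without inhibitor and -100% = no enzyme wells; top concentration of the series not given in the record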
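Fluorescence-quenching assay with 15 nM Sfp, 5 uM rhodamine-CoA and 12.5 uM BHQ-2-labelled ybbR peptide in pH 7.6 Hepes/MgCl2 buffer. Enzyme was pre-incubated with compound for 15 min at room temperature. Rate was taken from the 30-min fluorescence change (525/598 nm).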
PINK1 expr mod = modulators of PINK1 expression | PINK1 immunofluorescence, high-content cytometry, 24 h | Potency, µM (highest dose often 76.6 µM), inactives show top-dose activation (PINK1 increase), usual class: activators | hit rate 0.2% among 410,000; active = well fitted activation curve with a large enough effect; inconclusive = small, poorly fitted or top-dose-only effect; inactive = flat fitted curve, though single readings scatter; cell line not stated here;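 note: potency is the fitted concentration of half-maximal effect; % of control where 0% means no effect; nearly all actives have a fitted effect of over 65% in size; a mitochondrial uncoupler was the plate control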
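Stable cell line treated 24 h with compounds at 5 concentrations (CCCP controls), then fixed and immunostained for PINK1 plus nuclear and cell stains; PINK1 immunofluorescence quantified by laser-scanning microplate cytometry.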
gsp ag = agonists of gsp mutant (McCune-Albright syndrome); gsp mutant cells, cAMP HTRF, 30 min; control for the full effect not named in the record; Potency, µM (top dose mostly 76.9 µM), inactives show at the highest dose activation (cAMP increase), most hits filed as activators; hit rate 0.13% among 340,000; AID 624287; active = well fitted activation curve with a large enough effect; inconclusive = small, poorly fitted or top-dose-only effect, or another doubt; inactive = no such curve, though single readings can be large or run the other way; cell line not stated here;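 note: phosphodiesterase inhibitor Ro 20-1724 added with compounds to block cAMP breakdown; potency is the fitted concentration of half-maximal effect; nearly all actives have a fitted effect of over 60% in size; about a fifth of the inactives were tested at one dose only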
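Cells stably selected in G418 were plated at 2000/well, grown 16-24 hr, then given compounds in DMSO with the PDE inhibitor […] (300 uM solution added) for 30 min at 37C; cAMP was read by HTRF.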
Menin-MLL FL inh = displaces fluorescein MLL peptide from human menin. FP activity change, % at 61.4 µM. Fluorescence polarization, fluorescein-MLL peptide displacement from menin. 290,000 tested, under 10 active. AID 1766; inconclusive = falling polarisation curve, or a change in total fluorescence; inactive = total fluorescence flat and polarisation flat or rising; no compound was filed as active; the % refers to the polarisation; negative = inhibition;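 note: % of control where 0% means no effect; inhibitors lower the polarisation; unlabelled MLL peptide was the positive control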
D2 ag = agonists of human D2 dopamine receptor (beta-arrestin) | activation, % (no concentration beside the values) | P14416 | DiscoveRx PathHunter D2 beta-arrestin, luminescence, 90 min; 100% = 57 uM dopamine signal | AID 624465 | hit rate 0.084% among 360,000; in the data active = activation above about 40%; inconclusive = about 15% to 40%; inactive = below about 15%; note: compound concentration not given in the record; the text of the record calls up to 30% inactive
Target sequence (P14416 whole entry, looked up): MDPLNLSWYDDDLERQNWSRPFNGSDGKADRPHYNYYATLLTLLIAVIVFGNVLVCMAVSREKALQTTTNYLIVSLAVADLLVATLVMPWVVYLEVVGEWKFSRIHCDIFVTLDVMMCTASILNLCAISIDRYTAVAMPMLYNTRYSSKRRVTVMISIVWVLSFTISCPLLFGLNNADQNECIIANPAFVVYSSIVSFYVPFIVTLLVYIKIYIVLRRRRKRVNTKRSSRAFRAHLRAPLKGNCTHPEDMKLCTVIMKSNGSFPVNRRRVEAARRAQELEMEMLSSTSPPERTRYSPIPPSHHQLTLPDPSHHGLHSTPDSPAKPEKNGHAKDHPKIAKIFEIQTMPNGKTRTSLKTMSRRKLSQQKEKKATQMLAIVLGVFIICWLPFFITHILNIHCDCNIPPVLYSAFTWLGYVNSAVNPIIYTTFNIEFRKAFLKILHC
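Agonist mode: compounds alone added to overnight-plated D2 PathHunter cells for 90 min at 37 C, with 57 uM final dopamine (EC100) defining full response. Beta-arrestin recruitment detected by chemiluminescent reagent, read after 1 h at ambient temperature.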
* = called active by the depositor; ? = inconclusive; . = no result given; [ ] = remark or other dose.

SMILES	gsp antagonist	ClpP mod	Sfp inh	PINK1 expr mod	gsp ag	Menin-MLL FL inh	D2 ag
COc1ccc2nc(C)cc(SCC(=O)N/N=C/c3ccco3)c2c1	-23%	.	7%	-0.9%	-6%[15.4 µM]	1.2	2.1
COc1ccc2nc(N3C(=O)/C(=C/c4ccccc4)NC3=S)sc2c1	10%	1.9%	-20%	?	9%	?	-9.7
C=CCNC(=O)c1ccccc1CCc1ccccc1	7%	1.0%	10%	1.5%	0%	-3.3	-6.5
COc1ccc(N2CCN(C(=O)/C(C#N)=C/c3ccccc3)CC2)cc1	3%	1.6%	4%	0.8%	-13%	?	-0.2
Cc1ccc(N2C(=S)N=C(Nc3ccccc3C)C23CCOC(C)(C)C3)cc1 (stereo unspecified)	-3%	2.2%	13%	13%	18%	1.8	-5.1
COc1ccc(NC(=O)CN(C)C(=O)c2ccc(N3CCCC3)c([N+](=O)[O-])c2)cc1	4%	.	.	-1.0%	5%[15.4 µM]	.	-6.2
CC(=O)Nc1ccc(/C(C)=N/NC(=O)c2ccncc2)cc1	0%	.	-3%	0.5%	5%[15.4 µM]	-6.2	1.4
COc1ccc(-c2cc(C(=O)N3CCCC(C(F)(F)F)C3)c3ccccc3n2)cc1OC (stereo unspecified)	-19%	.	.	2.7%	-14%[15.4 µM]	.	-0.2
CCCC(=O)c1c[nH]c(C(=O)NCCCN2CCOCC2)c1	0%	25µM*	7%	-1.4%	-17%	-1.4	-1.1
CN(CC(=O)Nc1ccc(C#N)cc1)Cc1ccc(Cl)cc1	5%	-1.5%	1%	0.3%[38.3 µM]	-17%	1.5	1.4
CC1(C)CC(=O)C2=C(C1)OC(=O)C2(NC(=O)c1cccs1)C(F)(F)F (stereo unspecified)	13%	5.5%	14%	-0.9%	-2%	1.2	-0.1
Cc1ccc2cccc(S(=O)(=O)Nc3ccc4c(c3)OCO4)c2n1	-14%	-0.8%	-4%	?	25%	0.7	2.4
CCOc1ccc(NC(=O)CN(C)C(=O)c2ccc(C)c(S(=O)(=O)N3CCCCC3)c2)cc1OCC	-1%	-0.2%	6%	0.7%	4%	.	-3.6
CCCNC(=S)Nc1c(C)n(C)n(-c2ccccc2)c1=O	-15%	.	3%	-0.1%	-6%[15.4 µM]	-4.5	-3.7
CCN1CCN(C(=O)C2CCN(S(=O)(=O)N3CCC4(CC3)OCCO4)CC2)CC1	19%	0.6%	20%	-0.6%	-1%	3.5	-0.8
CCc1ccccc1NC(=O)c1nnn(CC(=O)Nc2cccc(C)c2C)c1N	4%	-3.9%	0%	4.9%	-4%	0.1	0.3
Cc1cc(NC(=O)COC(=O)c2cccc(S(=O)(=O)N3CCOCC3)c2)no1	7%	-1.6%	-2%	-3.3%[38.3 µM]	-5%	-0.2	-3.5
CN(C)C(=O)COc1ccc(Oc2ccccc2)cc1	16%	-0.1%	-1%	-0.6%	-24%	2.5	5.1
COc1ccc(C(=O)N2CCCC(C(=O)N3CCCCCC3)C2)cc1 (stereo unspecified)	1%	0.6%	24%	-1.1%	0%	0.7	-1.8
O=C(COC(=O)CNC(=O)c1ccc(Cl)cc1Cl)NNC(=O)c1ccccc1F	-1%	-2.5%	.	0.8%	3%[15.4 µM]	.	-3.4
COc1ccc(S(=O)(=O)N(Cc2ccccc2)c2ccccc2C(=O)O)cc1	-12%	-0.4%	18%	2.8%	17%[15.4 µM]	-0.4	0.3
Cc1ccc(S(=O)(=O)NCCC(=O)OCC(=O)N(C)c2ccccc2)cc1	5%	1.6%	.	-0.5%	9%	.	-4.5
O=C1C=C(c2ccc(F)cc2OCc2ccccc2)C[C@@H](c2ccc3c(c2)OCO3)C1	-11%	-0.6%	.	1.4%	.	.	-2.1
CCOc1ccccc1CN1CCNC(=O)C1CC(=O)N(C)CCC1CCOCC1 (stereo unspecified)	15%	0.1%	4%	0.1%	18%	-5.9	-5.9
O=CN(c1ccccc1)c1ccc2ccccc2c1	-44%	.	12%	1.3%	4%[15.4 µM]	-1.0	-8.4
CC1CCCN(S(=O)(=O)c2ccc3[nH]c(=O)cc(C(=O)NCCCN4CCCCCC4)c3c2)C1 (stereo unspecified)	.	-17%	.	-0.3%	-28%	.	-0.7
Cn1c(SCC2CCCO2)nnc1-c1ccc([N+](=O)[O-])cc1 (stereo unspecified)	-13%	-0.2%	0%	-2.3%	-22%	-1.8	3.2
Cc1cccc(NC(=O)N2CCCc3ccccc32)c1C	-6%	-0.9%	-3%	1.4%	-16%	-3.0	-2.9
COCCn1c(N)c(C(=S)NC(=O)c2cccs2)c(=O)[nH]c1=O	14%	-0.6%	25µM*	2.4%	?	19	0.5
Cc1ccc(NC(=O)CN(C)C(=O)Cc2coc3cc(C)c(C)cc23)cc1	5%	.	.	3.8%	0%[15.4 µM]	.	-3.1
Cc1cc(SCC(=O)Nc2ncc(Cl)cc2Cl)nc2ccccc12	-5%	-5.2%	-8%	?	10%	-2.0	-0.6
CN(C)c1ccc(NC(=O)N2CCOCC2)cc1	?	-2.5%	40µM*	-0.9%	0%	0.1	-6.7
COc1ccc(N2CCN(C(=O)c3ccc(Cn4c(=S)[nH]c5ccc(N6CCOCC6)cc5c4=O)cc3)CC2)cc1	-15%	.	71µM*	-1.5%	-1%[15.4 µM]	-5.3	0.6
C=CC(=O)Oc1ccc(N2Cc3ccccc3C2=O)cc1	-6%	-1.8%	.	0.5%	15%	.	-3.2
C=CCn1c(SCC(=O)NCCC2=CCCCC2)nc2ccc(Cl)cc2c1=O	13%	2.4%	22%	1.4%	2%	1.9	-2.7
CCOc1ccc(C2C(C(=O)OC)=C(C)N=C3SCCC(=O)N32)cc1OCC (stereo unspecified)	6%	-0.9%	7%	-0.9%	-2%	1.0	-1.0
Cc1ccc(-c2ccc(=O)n(CCC(=O)N3CCN(c4cccc(C)c4)C(C)C3)n2)cc1 (stereo unspecified)	-21%	-1.9%	-6%	-0.9%	-7%	0.4	-2.3
CC(=O)c1ccc(OCCCC(=O)Nc2cccc(S(=O)(=O)N3CCCCC3)c2)cc1	-5%	-1.8%	.	2.6%	6%	.	4.9
COC(=O)C1=C(CSc2nncn2C)NC(=O)NC1c1ccc(F)cc1 (stereo unspecified)	4%	-2.4%	14%	-3.6%[38.3 µM]	-28%	0.4	0.9
CC1Cc2cc(/C(O)=C3/C(=O)C(=O)N(CCN4CCOCC4)C3c3ccc(C(C)C)cc3)ccc2O1 (stereo unspecified)	-13%	.	1%	-0.9%	20%	3.0	1.1
COc1ccc(-c2c(C)n([O-])c3c([n+]2=O)CCCC3)c(OC)c1	6%	0.0%	7%	2.9%[38.3 µM]	-4%	-0.4	-3.2
COc1ccccc1C(=O)COC(=O)CNS(=O)(=O)c1ccc(C)c(C)c1	-18%	-3.0%	.	-1.1%	-50%[inhibitor]	.	-2.2
CN(C)/C(=C\C(=O)c1ccccc1)C(=O)c1ccccc1	1%	-2.3%	.	-4.1%	21%	.	0.1
CCCOC(=O)Nc1ccc(S(=O)(=O)Nn2cnnc2)cc1	6%	-0.8%	7%	-4.0%[38.3 µM]	-11%	-1.1	-3.7
COc1ccc(NC(=O)c2cc(S(=O)(=O)Nc3ccc(OC)cc3)cs2)cc1	?	0.3%	3%	0.5%	-51%[inhibitor]	2.3	-3.7
Cc1cccc(C)c1OCC(O)CN1CCc2ccccc2C1 (stereo unspecified)	5%	0.7%	.	3.5%	2%[15.4 µM]	.	-6.0
O=C(Nc1cc(Cl)ccc1Cl)C1Cc2ccccc2O/C1=N\O (stereo unspecified)	2%	.	9%	12%	-14%[15.4 µM]	-2.7	2.1
COc1ccc(N(CC(=O)Nc2ccc3c(c2)OCO3)S(=O)(=O)c2ccccc2)cc1	10%	.	19%	-0.4%	-12%	0.6	1.1
CCOC(=O)C1=CCN(S(=O)(=O)c2ccc(Cl)cc2)C1c1ccccc1 (stereo unspecified)	.	-0.7%	.	0.4%	.	.	7.2
O=C(O)c1cccc(-n2c(/C=C/c3ccccc3)nc3ccccc3c2=O)c1	-28%	.	-21%	2.2%	6%[15.4 µM]	-23	-0.7
COc1ccc(-c2csc(-c3ccc(O)cc3)n2)cc1	4%	-29%	8%	6.7%	28%	0.7	2.9
Cc1cccc(C(=O)NC2CC3CCCC(C2)N3C(=O)Nc2ccccc2)c1 (stereo unspecified)	-4%	.	7%	2.0%	-13%	4.5	-1.9
COc1ccc2nc(C)c3c(c2c1)OC(C)C3 (stereo unspecified)	-7%	?	15%	-1.2%	-3%	-0.7	-3.5
Cc1ccc(-c2cc(-c3ccccc3C)[nH]n2)c(O)c1	0%[15.4 µM]	-3.9%	8%	0.9%	18%	1.9	4.1
CCSc1nnc(CNC(=O)c2ccccc2F)n1-c1ccccc1OC	-2%	0.7%	25%	0.8%	-2%	2.8	-2.1
O=C(Nc1ccc(S(=O)(=O)C(F)F)cc1)c1ccc2c(=O)n3c(nc2c1)CCC3	0%	-2.9%	.	23%	-59%[inhibitor]	.	-3.1
O=C(c1ccoc1)N1CCN(c2cc(-c3ccccc3)nc3cc(-c4ccc(Br)cc4)nn23)CC1	.	4.1%	.	2.3%	?	.	-7.9
COc1cccc(-c2nnc(NC(=O)c3ccc(Cl)s3)o2)c1	-9%	0.0%	6%	0.5%	-10%	-1.4	-4.1
O=S1(=O)CC(c2ccccc2)=NN=C(c2ccccc2)C1	.	-0.8%	.	-1.0%	0%	.	-2.7
COc1ccc(C(=O)O)cc1S(=O)(=O)Nc1ccccc1C(=O)NCc1ccc2c(c1)OCO2	7%	-26%	.	-0.8%	-17%	.	-3.6
O=C(c1ccccc1)N1CCN(c2n[nH]c(=O)[nH]c2=O)CC1	7%	1.3%	9%	1.1%	?	-3.8	-0.7
COC(=O)Cn1c(C)nc(=O)c(-c2ccccc2)c1C	2%	-4.6%	10%	0.8%	19%	-4.5	-2.0
c1ccc(-c2ccccc2OCCCN2CCCCCC2)cc1	4%	-0.4%	-18%	25%	-40%[inhibitor]	-2.4	1.2
